Assay outcomes: PubChem BioAssay, Johns Hopkins Ion Channel Center
CHT inh – human CHT choline transport inhibition; CHT-expressing cells, membrane potential dye, choline response; active compounds read low; hit rate 0.86% among 310,000; B-score at 10 µM; AID 488975;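 active = B-score over 3 SD under the library average, and starting fluorescence ratio not unusually high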;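 note: choline stimulus applied at its EC90 after an EC20 pre-addition; B-score computed on integrated fluorescence ratio after choline addition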
Target sequence (Q9GZV3 whole entry, looked up): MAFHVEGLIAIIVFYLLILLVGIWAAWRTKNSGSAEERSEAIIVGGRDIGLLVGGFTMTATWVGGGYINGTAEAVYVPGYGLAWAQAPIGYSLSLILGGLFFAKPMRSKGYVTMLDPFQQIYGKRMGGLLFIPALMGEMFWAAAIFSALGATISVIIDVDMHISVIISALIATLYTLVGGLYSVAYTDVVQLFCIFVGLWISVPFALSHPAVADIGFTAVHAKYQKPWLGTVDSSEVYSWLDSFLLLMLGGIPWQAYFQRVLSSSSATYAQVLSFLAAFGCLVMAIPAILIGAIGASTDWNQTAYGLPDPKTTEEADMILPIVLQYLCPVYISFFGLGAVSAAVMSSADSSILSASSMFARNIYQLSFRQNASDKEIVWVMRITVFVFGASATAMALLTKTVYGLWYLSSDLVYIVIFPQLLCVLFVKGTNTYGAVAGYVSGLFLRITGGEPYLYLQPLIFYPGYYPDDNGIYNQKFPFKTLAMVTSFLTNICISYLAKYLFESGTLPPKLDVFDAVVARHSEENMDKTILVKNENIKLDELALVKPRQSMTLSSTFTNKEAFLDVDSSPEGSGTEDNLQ
Calls only; i = inactive. Some of the compounds tested, and most or all hits are left out here.

CHT inh	Compound
i	S=c1sc2ccccc2n1CCc1ccncc1
i	CCOC(=O)c1c(C)nsc1NC(=O)c1ccco1
i	Cc1csc(NC(=O)CSc2nnc(-c3ccncc3)n2C)n1
i	COc1cccc(NC(=O)COC(=O)c2ccc(S(=O)(=O)NCc3ccco3)cc2)c1
i	CCN(CC)S(=O)(=O)c1ccc(C)c(NC(=O)/C=C/c2cccs2)c1
i	Cc1c2c(nc3c(C(=O)NC4CCCCC4C)cnn13)CCCC2 (stereo not given)
i	CCOC(=O)c1cc2sccc2n1Cc1ccc(C#N)cc1
i	CN(C)C(=O)COC(=O)c1cc(Cl)cc(Cl)c1N
i	Cc1ncc([N+](=O)[O-])n1CCOC(=O)NC(NCc1ccccc1)C(Cl)(Cl)Cl (stereo not given)
i	Cc1ccc(Nc2cc(=O)[nH]c(=O)[nH]2)c(C)c1
i	CCc1ccc(NC(=O)CSc2nc3ccccc3c(=O)n2CCCC(=O)N2CCCC2)cc1
i	CCc1noc(C)c1C(=O)N1CCCC(N2CCN(c3ccc(F)cc3)CC2)C1 (stereo not given)
i	CCOc1ccc(C(=S)N2CCOCC2)cc1
i	COCCNC(=O)c1ccc(CS(=O)(=O)c2ccc(Cl)cc2)o1
i	Cc1ccc(NC(=O)CCN2C(=O)c3ccccc3C2=O)c(C)c1
i	O=C(NCCN1CCN(C(=O)NC2CCCCC2)CC1)NC1CCCCC1
i	O=C(Oc1ccc2ccc(=O)oc2c1)C1CCCCC1
i	CCOc1ccc(NC(=O)Nc2cccc(C)n2)cc1
i	O=S(=O)(c1ccccc1)c1nc(-c2ccc(F)cc2)oc1N1CCOCC1
i	O=C(c1ccccc1-c1ccccc1)N1CCCCC1
i	Cc1ccc(OCc2nnc(NC(=O)c3cccnc3)s2)cc1
i	CC(C)OCCCNC(=O)c1cc(Sc2ccc(F)cc2)nc2ccccc12
i	COC(=O)c1ccccc1N(C)S(=O)(=O)c1cc2c(cc1C)OCC(=O)N2
i	NC(=O)CC(NC(=O)c1ccccc1)c1ccc(NC2CCN(Cc3ccccc3)CC2)c([N+](=O)[O-])c1 (stereo not given)
i	CC(C)c1nnc(NC(=O)CCC2CCCCC2)s1
i	C=C(C)c1cccc(C(C)(C)NC(=O)NCc2ccc(OC)c(OC)c2)c1
i	Cc1ccc(NC(=O)CN2CCc3ccccc3C2)cc1
i	Cn1c(=O)c2c(nc(CN3CCN(C(=O)c4ccco4)CC3)n2Cc2ccc(F)cc2)n(C)c1=O
i	O=C(Nc1nc2ccc(F)cc2s1)C1CCCO1 (stereo not given)
i	CC(C)C(NC(=O)C(c1ccccc1)c1ccccc1)c1nc2ccccc2[nH]1 (stereo not given)
i	Fc1cccc(Cl)c1Cn1nnc2c(NCc3ccccn3)ncnc21
i	CC1CN(Cc2cn(C)nc2-c2ccc(Oc3ccccc3)cc2)CCN1C (stereo not given)
i	O=C(Nc1nc2ccccc2[nH]1)c1ccc(Cl)c([N+](=O)[O-])c1
i	CN(Cc1ccccn1)C(=O)C1CCC(=O)N(Cc2cccc(C(F)(F)F)c2)C1 (stereo not given)
i	CCCC(=O)C1=C(O)C(C(=O)OC)C(C)(C)CC1=Nc1ccccc1 (stereo not given)
i	CCOC(=O)COc1cc(=O)n(CC)c2ccccc12
i	CN(C)C(CNC(=S)Nc1ccccc1Cl)c1cccnc1 (stereo not given)
i	CCC(C)[C@H](NC(=O)Nc1cccc(Cl)c1)C(=O)O (stereo not given in full)
i	O=S(=O)(N1CCOCC1)N1CCN(c2ccccc2F)CC1
i	CCN(C(=O)C1CCCN(c2nc(-c3ccc(OC)cc3)no2)C1)c1ccc(OC)cc1 (stereo not given)
i	CCC(CC)NC(=O)c1cccc([N+](=O)[O-])c1C
i	COc1cccc(-c2nc(CSCC(=O)NCC3CCCO3)c(C)o2)c1 (stereo not given)
i	N#CCCN(CCC#N)C(=O)C1c2ccccc2Oc2ccccc21
i	O=C(c1ccccc1)N1CCN(c2ccc([N+](=O)[O-])c(NCc3ccco3)c2)CC1
i	COc1ccc(OC)c2sc(NNC(=O)COc3ccccc3)nc12
i	Cc1ccc(CC2CC(=O)N(c3cc(C)ccc3C)C2=O)cc1 (stereo not given)
i	COCc1cc(C)nc2sc(C(=O)N3CCN(c4ccccc4)CC3)c(N)c12
i	N#Cc1ccc(Oc2cnccn2)cc1
i	Cc1ccc(-c2csc(NC(=O)Cc3cccs3)n2)cc1C
i	Cc1nc2ccc(-n3ccc(=O)cc3)cc2s1
i	Cc1cc(C(=O)NCc2ccccc2F)c2ccccc2n1
i	NCCCC[C@H](N[C@@H](CCc1ccccc1)C(=O)O)C(=O)N1CCC[C@H]1C(=O)O
i	CN(Cc1ccc(Cl)cc1Cl)C(=O)CNC(=O)c1ccc2c(c1)OCO2
i	Cc1ccccc1Cc1ccc(Cl)nn1
i	O=C(COc1ccc(S(=O)(=O)NC2CCCCC2)cc1Cl)Nc1ccc2c(c1)OCO2
i	COc1ccc(Cl)cc1C(=O)NNC(=S)NC1CCCC1
i	Cc1ccc(N(CC(O)CN2CCOCC2)S(=O)(=O)c2ccc3ccccc3c2)cc1 (stereo not given)
i	CCc1ccc(C2C(C#N)=C(N)Oc3cc(N)ccc32)cc1 (stereo not given)
i	CCn1c(=O)cc(SCC(=O)Nc2cccc(C)n2)c2ccccc21
i	O=C(CNS(=O)(=O)c1ccc2ccccc2c1)OCC(=O)c1ccc(Br)s1

In the list so far, these have a thiophene ring, fused or not.
CHT inh	Compound
i	CCN(CC)S(=O)(=O)c1ccc(C)c(NC(=O)/C=C/c2cccs2)c1
i	CCOC(=O)c1cc2sccc2n1Cc1ccc(C#N)cc1
i	COCc1cc(C)nc2sc(C(=O)N3CCN(c4ccccc4)CC3)c(N)c12
i	Cc1ccc(-c2csc(NC(=O)Cc3cccs3)n2)cc1C
i	O=C(CNS(=O)(=O)c1ccc2ccccc2c1)OCC(=O)c1ccc(Br)s1

Remaining list, next part
CHT inh	Compound
i	CCCCOCCCNC(=S)Nc1ccc(S(=O)(=O)N2CCOCC2)cc1
i	CCS(=O)(=O)c1ccc(O)c(NC(=O)COc2ccc(Cl)cc2)c1
i	Cc1ccc(/C(O)=C2\C(=O)C(=O)N(C)C2c2ccc(Br)cc2)cc1 (stereo not given)
i	Cn1cc(S(=O)(=O)Nc2cccc(F)c2)c(=O)n(C)c1=O
i	CC(C)C(C(=O)NCc1ccco1)N(CC1CCCO1)C(=O)CNS(=O)(=O)c1ccc(F)cc1 (stereo not given)
i	Cn1ccnc1SCC(=O)Nc1ccc2c(c1)OC(F)(F)O2
i	CCN(CCNC(=O)C1CCN(S(=O)(=O)c2cccc3cccnc23)CC1)c1ccccc1
i	CSc1ncccc1C(=O)OCc1ccc(Br)cc1
i	CCNC(=O)CC1C(=O)N(c2ccc(C)cc2)C(=O)N1CCc1ccc(OC)c(OC)c1 (stereo not given)
i	O=S(=O)(NCCC(c1ccc(F)cc1)c1ccco1)c1ccccc1 (stereo not given)
i	CCOc1ccc2[nH]c(=S)[nH]c2c1
i	NC(=O)C1CCN(C(=O)C2CCC(=O)N(Cc3ccc(Cl)cc3)C2)CC1 (stereo not given)
i	CCC1Nc2ncnc(N3CCN(c4ccccc4)CC3)c2N(Cc2ccc(C)cc2)C1=O (stereo not given)
i	COc1ccc(C(CNC(=O)C(C)(C)Oc2ccc(Cl)cc2)N2CCCCC2)cc1 (stereo not given)
i	COc1ccc(CCNS(=O)(=O)c2cn(C)c(=O)n(C)c2=O)cc1OC
i	Fc1ccccc1NC(=S)NCc1ccc(Cl)cc1
i	COc1ccc2cc(CO)c(Cl)nc2c1
i	CCC(OC(=O)c1cccs1)C(=O)NC1CCCCC1 (stereo not given)
i	CCS(=O)(=O)c1nc(S(=O)(=O)c2ccc(C)cc2)c(N2CCOCC2)s1
i	COc1ccccc1NC(=O)c1sc(NC(=O)c2ccco2)c(C#N)c1C
i	Cc1c(C)c2c(OCC(=O)N3CCC(C(=O)NCC(C)C)CC3)cc3c(c2oc1=O)CCC(C)(C)O3
i	CC1CCC(=NNC(=O)Cc2ccccc2)CC1 (stereo not given)
i	COc1cc(NC(=O)COC(=O)CSc2ccc3ccccc3c2)c(C)cc1[N+](=O)[O-]
i	CC(=O)c1ccc(NC(=O)CSCCO)cc1
i	O=C(Cc1ccccc1)N/N=C/c1cccn1-c1ccc([N+](=O)[O-])cc1
i	CCCC(=O)Nc1cc(-c2nnc(OC)c3ccccc23)ccc1N1CCCCC1
i	CCCC(=O)Nc1cccc(NC(=O)c2ccc3c(c2)OCCO3)c1
i	O=C(CSc1nc(-c2ccco2)cc(C(F)(F)F)n1)NCc1cccs1
i	Cc1nn(CCOc2ccc(Br)cc2)c(C)c1[N+](=O)[O-]
i	O=C(O)C1C2C=CC(O2)C1C(=O)NCCc1cccc(Cl)c1 (stereo not given)

Of the compounds above, four contain an NH in an aromatic ring.
CHT inh	Compound
i	Cc1ccc(Nc2cc(=O)[nH]c(=O)[nH]2)c(C)c1
i	CC(C)C(NC(=O)C(c1ccccc1)c1ccccc1)c1nc2ccccc2[nH]1 (stereo not given)
i	O=C(Nc1nc2ccccc2[nH]1)c1ccc(Cl)c([N+](=O)[O-])c1
i	CCOc1ccc2[nH]c(=S)[nH]c2c1

Structural class, the compounds so far with a CF3 group
CHT inh	Compound
i	CN(Cc1ccccn1)C(=O)C1CCC(=O)N(Cc2cccc(C(F)(F)F)c2)C1 (stereo not given)
i	O=C(CSc1nc(-c2ccco2)cc(C(F)(F)F)n1)NCc1cccs1

Some of these compounds in order of count of non-hydrogen atoms, rising:
CHT inh	Compound
i	CCS(=O)(=O)c1ccc(O)c(NC(=O)COc2ccc(Cl)cc2)c1
i	CCCC(=O)Nc1cccc(NC(=O)c2ccc3c(c2)OCCO3)c1
i	NC(=O)C1CCN(C(=O)C2CCC(=O)N(Cc3ccc(Cl)cc3)C2)CC1 (stereo not given)
i	CC(C)C(C(=O)NCc1ccco1)N(CC1CCCO1)C(=O)CNS(=O)(=O)c1ccc(F)cc1 (stereo not given)

Next records
CHT inh	Compound
i	O=C(c1c[nH]c(C(=O)C(Cl)(Cl)Cl)c1)c1ccccc1Cl
i	O=C(NCC(=O)N(CCN1CCOCC1)C(C(=O)NC1CCCC1)c1ccccc1)c1cccs1 (stereo not given)
i	O=C(Nc1cccc(S(=O)(=O)N2CCCC2)c1)c1cc(-c2ccccn2)nc2ccccc12
i	Fc1ccc(N2CCN(C(c3cccs3)c3nnnn3C3CCCC3)CC2)cc1 (stereo not given)
i	COc1cc(NC(=S)NCCc2ccc(S(N)(=O)=O)cc2)c(OC)cc1Cl
i	O=C(O)C1CCCN(S(=O)(=O)c2ccc(Br)s2)C1 (stereo not given)
i	Cc1ccc(C(=O)N/C(=C\c2sccc2C)C(=O)NCCCN2CCOCC2)cc1
i	COCCC(=O)N1CCC(Oc2ccc(C(=O)NCc3cccc(C)n3)cc2)CC1
i	O=C(NCC1CCCO1)c1ccc(NC(=O)C2C3C=CC(C3)C2C(=O)O)cc1 (stereo not given)
i	O=C(Nc1ccc(Oc2cccc(C(F)(F)F)c2)nc1)c1cccs1
i	CN(CC(=O)NCCc1ccccc1)S(=O)(=O)c1cnc[nH]1
i	CCOC(=O)N1CCN(C(=O)c2ccccc2NS(=O)(=O)c2ccc(C)cc2)CC1
i	OC1CCCN(CC(O)COc2ccc(-c3ccccc3)cc2)C1 (stereo not given)
i	O=C(O)c1ccccc1NC(=S)NC(=O)c1cccc2ccccc12
i	Cc1ccc(NC(=S)N2CCN(c3ncccn3)CC2)cc1C
i	COc1cccc(CN2CCN(C3CCN(c4ccccc4C)CC3)CC2CCO)c1 (stereo not given)
i	COc1cc(NC(=O)CN(C)S(=O)(=O)c2ccc(C)cc2)cc(OC)c1
i	Cn1c(=O)c(=O)n(C)c2cc(S(=O)(=O)CCC(=O)Nc3ccc(F)cc3)ccc21
i	CCOc1ccc(CCNC(=O)C2CCCN(c3nn4c(=O)cc(C)nc4s3)C2)cc1 (stereo not given)
i	O=C(Nc1ncnc2sc3c(c12)CCCCC3)c1ccco1
i	COc1ccc(NC2CC(=O)N(CCc3ccccc3)C2=O)cc1 (stereo not given)
i	COc1ccc(-c2cc(C(=O)N3CCc4ccccc4C3)no2)cc1
i	O=c1c2c3c(sc2nc(N2CCNCC2)n1-c1cccc(Cl)c1)CCCCC3
i	COc1ccc(-c2ccnc(SCC(=O)c3ccc(Cl)cc3)n2)cc1
i	CCN1CCN(C(c2cccs2)C(C)NS(=O)(=O)c2ccccc2)CC1 (stereo not given)
i	COC(=O)c1nn(-c2ccc(OC)cc2)c(=O)c2c(N)sc(C)c12
i	COCCN(C(=O)CSc1nnc2cc(C)c3ccccc3n12)c1c(N)n(Cc2ccccc2)c(=O)[nH]c1=O
i	COc1ccc(C2Nc3ccccc3C(=O)N2NS(=O)(=O)c2ccccc2)c(OC)c1 (stereo not given)
i	Cc1[nH]c2ccc(F)cc2c1CCN(Cc1ccco1)C(=S)NC(C)(C)C
i	CC(=O)N/C(=C\c1cccs1)C(=O)O
i	COc1ccccc1NC(=O)CN1CCCCCC1
i	Cn1c(COc2ccc(Cl)cc2)nnc1SCC(=O)NC1CCCCC1
i	O=C(c1cc(COc2ccc(F)cc2F)on1)N1CCN(C(=O)c2ccco2)CC1
i	Cc1cc(C)nc(SCCc2ccncc2)n1
i	O=C1CN(C(=O)CC2c3ccccc3-c3ccccc32)CC(=O)N1
i	O=C(COc1ccc(F)cc1)N1CCCc2ccccc21
i	O=C(CCc1nnc(-c2ccc3c(c2)OCO3)o1)NC(c1cccnc1)C(F)(F)F (stereo not given)
i	O=C(CN1CCN(C(c2ccccc2)c2ccccc2)CC1)Nc1ccc(N2CCOCC2)cc1
i	CCOC(=O)C1=C(CSc2nccn2C)NC(=O)NC1c1ccc(OC)cc1 (stereo not given)
i	Cc1ccc(C)c(NC(=O)C(=O)NCCc2c[nH]c3ccccc23)c1
i	CCOc1ccccc1N1CCN(C(=O)NCc2ccc(F)cc2)CC1
i	O=C(NCc1ccc(Cl)cc1)C1CCC(=O)N(C2CC2)C1 (stereo not given)
i	CC(C)(C)NC(=O)c1cccc2c1-c1ccccc1C2=O
i	CN(Cc1ccccc1)C(=O)c1[nH]cnc1C(=O)NCC(=O)OCc1ccccc1
i	CCn1c(=O)cc(SCC(=O)NCc2ccc3c(c2)OCO3)c2ccccc21
